# Cruzain inh Det: qHTS Assay for Promiscuous and Specific Inhibitors of Cruzain (with detergent). purified cruzain, Z-FR-AMC fluorescence, 0.01% Triton. Potency, µM, for the others: max response, negative = inhibition, usual class: inhibitors. 200,000 compounds, 0.43% hits. AID 1478, 2009;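 further: plate controls were neutral wells for no effect and buffer without enzyme for full effect; nearly all actives have a fitted effect of over 40% in size; top concentration of the series not given in the record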
# Target sequence (P25779 123-467 limits assumed): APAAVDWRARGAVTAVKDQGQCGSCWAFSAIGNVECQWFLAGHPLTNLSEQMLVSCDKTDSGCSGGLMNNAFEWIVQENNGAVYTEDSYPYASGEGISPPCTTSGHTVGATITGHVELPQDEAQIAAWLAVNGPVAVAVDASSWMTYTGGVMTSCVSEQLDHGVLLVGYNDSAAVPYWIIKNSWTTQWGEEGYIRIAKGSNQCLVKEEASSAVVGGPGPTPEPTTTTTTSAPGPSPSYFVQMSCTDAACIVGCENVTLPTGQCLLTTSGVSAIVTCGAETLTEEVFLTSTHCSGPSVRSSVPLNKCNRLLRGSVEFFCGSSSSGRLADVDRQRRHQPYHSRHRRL
#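 Z-FR-AMC hydrolysis (2 uM substrate) by cruzain (1.5 nM) monitored kinetically at ex 360/em 450 nm after 15 min room-temperature compound exposure; 0.01% Triton X-100, pH 5.5, 5 mM DTT.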
# StopGo reporter: High Throughput Screening for Foot and Mouth Disease Virus Antivirals; human cells with a luciferase reporter of 2A StopGo recoding; control for the full effect not named in the record; Potency, µM (highest dose often 57.9 µM), inactives show at the top dose signal change, negative = less light; 410,000 compounds, 1.2% hits; active = well fitted falling curve with a large enough effect; inconclusive = small, poorly fitted or top-dose-only effect; inactive = no such curve, though single readings can be large or run the other way; tested in HEK293T cells; further: nearly all actives have a fitted effect of over 45% in size; luciferase light after 4 h
# Cruzain noTriton: qHTS Assay for Promiscuous and Specific Inhibitors of Cruzain (without detergent) | Cruzipain (Trypanosoma cruzi), P25779 | purified cruzain, Z-FR-AMC fluorescence, no detergent | Potency, µM, without a hit: max response, negative = inhibition, usual class: inhibitors | 200,000 compounds, 2.3% hits | AID 1476, 2009;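 further: plate controls were enzyme without inhibitor for no effect and buffer without enzyme for full effect; nearly all actives have a fitted effect of over 40% in size; top concentration of the series not given in the record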
#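 Purified cruzain at 1.5 nM, pre-incubated 15 min with compound at room temperature in 100 mM sodium acetate pH 5.5, 5 mM DTT, 0.00005% Triton X-100. Reaction started with 2 uM Z-FR-AMC; AMC fluorescence increase over 60 s gives rate.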
# Starred values were filed as active, the others as inactive; ? = inconclusive; & = joins results of further samples; [ ] = remark or other dose. Unless noted, the call rests on the fitted dose curve; in most records, active means well fitted curve in the direction sought with a large enough effect; inconclusive means small, poorly fitted or top-dose-only effect, or another doubt; inactive means no such curve, though single readings can be large; an effect the other way counts as inactive or inconclusive. Unless noted, on the % scale 0 is the no-effect control and ±100 the full control effect; potency means the concentration at half of the fitted maximal effect. Some of the compounds tested. The share of hits here may be higher or lower than overall.
# Each structure is followed by: Cruzain inh Det	StopGo reporter	Cruzain noTriton
O=C(O)CC/C=C\C[C@@H]1CO[C@H](c2ccccc2Cl)O[C@@H]1c1ccccc1O
    -6.0%	-9.9%	5.3%
COc1ccc(CNc2nc(-c3ccc(C(=O)N(C)C)cc3)nc3ccccc23)c(OC)c1
    -9.2%	30.0%[activator]	-0.8%
COc1ccccc1CN1CC2(CCN(C(=O)c3cc(C(F)(F)F)cc(C(F)(F)F)c3)CC2)C1
    2.2%	-3.0%	-5.1%
COCCNc1nc(-c2ccc(C(=O)N(C)C)cc2)nc2ccccc12
    -12.4%	43.7%[activator]	-5.8%
Cn1c(=O)c(-c2ccccc2)nc2cnc(N3CCNCC3)nc21
    -2.2%	6.3%	-16.3%
CC(=O)Nc1ccc(OC(=O)c2ccccc2O)cc1
    -9.1%	47.3%[activator]	-4.0%
O=C(c1cccc(F)c1)N1CCC2(CCCN(c3ccccn3)C2)CC1
    0.3%	13.7%	-3.0%
COc1ccc2[nH]cc(CCNc3ncncc3-c3ccc(N(C)C)cc3)c2c1
    1.0%	?	-11.8%
C[C@H](NC[C@H](O)CP(=O)(O)Cc1ccccc1)c1ccc(Cl)c(Cl)c1
    -4.5%	-7.2%&-11.7%	12.3%
CC(=O)OC1CC(OC(C)=O)[C@]2(C)C(CC(=O)[C@]3(C)C2CC[C@@]2(C)C(C(=O)O)OC(=O)C4OC423)C1(C)C (stereo partly drawn)
    5.1%	5.5%	4.0%
FC(F)(F)c1ccccc1-c1nccc(N2CCNCC2)n1
    0.3%	-3.6%	-2.6%
NC(=NCc1ccc(Cl)cc1)SCCCc1cnc[nH]1
    -0.5%	-9.7%	-1.9%
CCOC(=O)C1=C(C)NC(c2ccccc2)=C(C(=O)OCc2ccc([N+](=O)[O-])cc2)[C@@H]1C#Cc1ccccc1
    3.0%	-19.2%	?
COC(=O)N1CCC2(CC1)CCN(c1ccncc1)CC2
    3.4%	-13.4%	0.9%
COC(=O)N1CCC[C@@]2(CCN(Cc3nccs3)C2)C1
    2.3%	-4.5%	4.9%
COc1ccc(C(=O)c2c(C)n(CCN3CCOCC3)c3cc(I)ccc23)cc1
    1.2%	?	?
CN(Cc1ccco1)c1ncncc1-c1ccc2c(c1)OCO2
    1.2%	-3.3%	2.7%
CC1CCC2=C1C[C@H](C(C)(C)O)CC[C@@H]2C (stereo partly drawn)
    -1.3%	-6.7%	0.4%
CN(C)C(=O)c1ccc(-c2ccc3ncnc(NCc4cccs4)c3c2)cc1
    ?	-7.9%	-6.0%
CN1CCN(c2ncc3nc(-c4cccc(C#N)c4)c(=O)n(C)c3n2)CC1
    17.8µM*	0.7%	?

# (continued)
# Each structure is followed by: Cruzain inh Det	StopGo reporter	Cruzain noTriton
O=C(Nc1ccccc1)N1CCC2(CCNCC2)CC1
    0.0%	5.4%	1.8%
COc1ccc2[nH]cc(CCNc3nc(-c4ccoc4)nc4ccccc34)c2c1
    -3.3%	7.0%	-28.0%
O=c1c(-c2ccccc2)nc2cnc(N3CCOCC3)nc2n1CCc1ccccc1
    2.7%	-0.6%	4.5%
C(=C/c1ccccc1)/CN1CCN(CCOC(c2ccccc2)c2ccccc2)CC1
    -3.4%	-30.9%	2.8%
NC(=O)CCCCn1ccc(NC(N)=NCC(F)(F)F)n1
    4.2%	-4.2%&-8.1%	?
C=C[C@@H](C1=CC(=O)C(OC)=C(OC)C1=O)c1ccccc1
    -2.8%	?	16.3%
c1ccc2c(c1)sc1ccccc12
    -1.8%	9.5%	-4.1%
Clc1cccc(Nc2nnc(-c3ccccc3)c3ccccc23)c1
    -0.6%	-10.5%[97.4 µM]	?
Cc1nc2cnc(Oc3cccc(Cl)c3)nc2n(CCc2ccccc2)c1=O
    -1.0%	-18.5%	1.3%
COc1ccc(-c2nc3cnc(N4CCNCC4)nc3n(-c3ccccc3)c2=O)cc1
    -3.5%	9.2%	3.9%
c1cncc(-c2ccc3ncnc(NCCN4CCOCC4)c3c2)c1
    -2.0%	3.3%	7.9%
O=C(c1cc(C(F)(F)F)cc(C(F)(F)F)c1)N1CCC[C@@]2(CCN(c3ccncc3)C2)C1
    3.4%	-8.6%	1.2%
O=c1c(-c2ccc(F)cc2)nc2cnc(N3CCOCC3)nc2n1-c1ccccc1
    2.4%	-17.7%	18.9%
CN(C)c1ccc(-c2ccc3ncnc(NC4CC4)c3c2)cc1
    -4.1%	-11.0%	-11.1%
COc1ccc2c(c1)CCC1[C@@H]2CCC2(C)[C@@H](NCCCCCCN3C(=O)C=CC3=O)CC[C@@H]12 (stereo partly drawn)
    -16.0%	-8.0%	-0.3%
COc1cccc(-c2cncnc2Nc2ccccc2)c1
    3.0%	-16.1%	0.4%
CCCCCCCC/C=C/CCCCCCCCOP(=O)([O-])OCC[N+](C)(C)C
    -0.5%	9.1%	?
CCC1/C=C/C=CCC(C)C(O)[C@@](C)(O)C(=O)C(C)C(O)C(C)C(=O)C(C)C(O)C(C)C=CC(=O)O[C@H]2C(C)C(CC1)O[C@]1(CCC(C)C(CC(C)O)O1)C2C (stereo partly drawn)
    -1.9%	?	?
O=C(c1csnn1)N1CCC2(CCCN(c3ccccc3)C2)CC1
    1.3%	9.1%	-0.9%
CCCCC/C=C\C/C=C\C/C=C\CCCCCCC(=O)NCCO
    1.3%&3.5%	-10.3%[6.7 µM]	9.6%&-0.8%

# 6 entries from above, as tab-separated lines.
canonical_smiles	Cruzain inh Det	StopGo reporter	Cruzain noTriton
c1cncc(-c2ccc3ncnc(NCCN4CCOCC4)c3c2)c1	-2.0%	3.3%	7.9%
O=C(c1cc(C(F)(F)F)cc(C(F)(F)F)c1)N1CCC[C@@]2(CCN(c3ccncc3)C2)C1	3.4%	-8.6%	1.2%
O=c1c(-c2ccc(F)cc2)nc2cnc(N3CCOCC3)nc2n1-c1ccccc1	2.4%	-17.7%	18.9%
CN(C)c1ccc(-c2ccc3ncnc(NC4CC4)c3c2)cc1	-4.1%	-11.0%	-11.1%
COc1ccc2c(c1)CCC1[C@@H]2CCC2(C)[C@@H](NCCCCCCN3C(=O)C=CC3=O)CC[C@@H]12 (stereo partly drawn)	-16.0%	-8.0%	-0.3%
COc1cccc(-c2cncnc2Nc2ccccc2)c1	3.0%	-16.1%	0.4%

# Further entries follow.
# Each structure is followed by: Cruzain inh Det	StopGo reporter	Cruzain noTriton
Cc1cccc(CNc2ncnc3ccc(-c4ccc(C(=O)N(C)C)cc4)cc23)c1
    -1.8%	-14.8%	?
COc1ncc2nc(C)c(=O)n(C[C@H]3CCCO3)c2n1
    -8.9%	1.2%	5.0%
c1cncc(CNc2ncncc2-c2ccc3c(c2)OCO3)c1
    7.0%	5.2%	-4.2%
COc1cccc(Cn2c(=O)c(-c3cccs3)nc3cnc(OC)nc32)c1
    2.8%	-2.9%	11.7%
COc1cccc(Nc2ncc3nc(-c4ccccc4)c(=O)n(C)c3n2)c1
    -1.6%	?	-10.6%
O=C(c1cc(C(F)(F)F)cc(C(F)(F)F)c1)N1CCC[C@@]2(CCN(Cc3ccccc3)C2)C1
    -1.0%	-4.6%	4.6%
CN(C)C(=O)c1ccc(-c2nc(NCc3ccccc3)c3ccccc3n2)cc1
    -0.7%	23.6%	-5.5%
Nc1ncnc2c1nc(Br)n2C1OC(CO)C(O)C1O (stereo not drawn)
    3.1%	?	-2.4%
NCCCNCCCCN(CCCN)/[N+]([O-])=N/O
    -5.7%	-17.2%	2.9%
CC(=O)OC1C(=O)[C@]2(C)C(O)CC3OC[C@]3(OC(C)=O)C2[C@@H](OC(=O)c2ccccc2)[C@]2(O)CC(O)C(C)=C1C2(C)C (stereo partly drawn)
    1.4%	-9.6%	3.0%
COc1ccc2[nH]cc(CCNc3cc(-c4ccoc4)ncn3)c2c1
    -3.0%	-0.1%	-2.4%
CC(=O)NCCNc1nc(-c2ccccc2CN(C)C)nc2ccccc12
    2.4%	-0.2%	-6.3%
CCNc1ncc2nc(-c3ccc(F)cc3)c(=O)n(CCC#N)c2n1
    -4.1%	-2.1%	4.7%
CC(=O)C1CCC2C3CCC4CC(O)CCC4(C)C3CC(O)C12C (stereo not drawn)
    1.5%	-15.2%	5.8%
COc1ccccc1-c1cc(NCc2cccc(C)c2)ncn1
    2.7%	-13.3%	-2.9%
COc1ccccc1CNc1nc(-c2cccc(C#N)c2)nc2ccccc12
    0.8%	-22.1%	?
O=C1C(Cl)=C(NCCN2CCOCC2)C(=O)c2ncccc21
    ?	15.8µM*	?
c1cncc(-c2cncnc2-n2ccnc2)c1
    0.9%	-3.1%	2.8%
COc1ccc(C(=O)N2CCC[C@@]3(CCN(c4ccccn4)C3)C2)cc1
    -0.5%	-5.8%	6.9%
COc1ccc(-c2nc3cnc(N(C)C)nc3n(C[C@H]3CCCO3)c2=O)cc1
    -0.5%	0.7%	12.9%

# Record cards, from the list above.
# COc1ccc2[nH]cc(CCNc3cc(-c4ccoc4)ncn3)c2c1 as listed: Cruzain inh Det = -3.0%; StopGo reporter = -0.1%; Cruzain noTriton = -2.4%
# c1cncc(CNc2ncncc2-c2ccc3c(c2)OCO3)c1 as listed: Cruzain inh Det = 7.0%; StopGo reporter = 5.2%; Cruzain noTriton = -4.2%

# More structures follow:
# Each structure is followed by: Cruzain inh Det	StopGo reporter	Cruzain noTriton
CCCCCCCCCCCCCCC[C@@H](O)[C@H](CO)NC(C)=O
    -0.1%	-10.1%[6.7 µM]	-5.7%
C[C@@H](N)C(=O)O
    0.5%	-18.3%	0.3%
CCNc1ncc2nc(-c3ccc(OC)cc3)c(=O)n(Cc3ccc(F)cc3)c2n1
    1.5%	4.2%	5.1%
COCCn1c(=O)c(-c2ccc(Cl)cc2)nc2cnc(Oc3ccccc3)nc21
    -7.2%	-13.3%	-4.2%
CC(=O)NCCNc1ncnc2ccc(-c3ccccc3Cl)cc12
    0.6%	-5.4%	-1.3%
COc1ccccc1-c1nccc(NC2CCNCC2)n1
    9.1%	-9.7%	2.4%
CC1=NN(c2ccc([N+](=O)[O-])cc2)C(=O)C1[N+](=O)[O-] (stereo not drawn)
    -5.4%	0.5%	-17.7%
CCNC(=O)CCC(N)C(=O)O (stereo not drawn)
    -0.3%	-4.3%	1.3%
CC1(C)C(O)C=C[C@@]2(C)C1CC(=O)O[C@@]1(C)C3=CC(=O)OC(c4ccoc4)[C@]3(C)CCC21 (stereo partly drawn)
    1.0%	-8.3%	1.4%
O=c1cnc2cnc(Nc3ccccc3)nc2n1Cc1ccc(F)cc1
    -3.8%	-18.2%	20µM*
COc1ccc(C(=O)N2CCC3(CCCN(C(=O)Nc4cccc(F)c4)C3)CC2)cc1
    3.0%	14.6%	-11.4%
CN1CCN(c2ncnc3ccc(-c4ccccc4C#N)cc23)CC1
    -0.7%	?	2.3%
CC(C)CN1CCCC2(CCN(C(=O)c3csnn3)CC2)C1
    -5.7%	-7.7%	-2.8%
C/C(Nc1ccc2oc(=O)ccc2c1)=C1/C(=O)CC2[C@@H]1C2(C)C (stereo partly drawn)
    2.1%	?	-19.0%
CCNc1ncc2nc(-c3cc(F)cc(F)c3)c(=O)n(C)c2n1
    -0.4%	7.2%	?
CNCCc1cnc[nH]1
    1.1%	6.5%&-6.2%	0.8%
N=C(C[C@@H](O)COc1ccccc1-c1ccccc1)N1CCCCC1
    -0.4%	-29.8%	4.0%
O=C(/C=C/C(=O)Oc1ccccc1C(=O)O)Oc1ccccc1C(=O)O
    3.9%	7.2%	-1.2%
c1ccc(N2CCCC3(CCNCC3)C2)cc1
    -2.3%	-13.1%	-1.0%
COc1cccc(Cn2c(=O)c(-c3ccc(Cl)cc3)nc3cnc(N(C)C)nc32)c1
    1.7%	-1.0%	1.5%

# Next part:
# Each structure is followed by: Cruzain inh Det	StopGo reporter	Cruzain noTriton
COc1cccc(Nc2ncc3nc(C)c(=O)n(Cc4cccs4)c3n2)c1
    -2.1%	-22.7%	0.7%
COc1ccccc1CNc1cc(-c2cccc(C#N)c2)ncn1
    -4.0%	-16.6%	5.6%
Cn1cc(-c2nc3cnc(N4CCNCC4)nc3n(C3CC3)c2=O)c2ccccc21
    -6.8%	-12.0%	-7.0%
N#Cc1cccc(NC(=O)N2CCC3(CC2)CCN(C(=O)c2cccc(F)c2)CC3)c1
    3.8%	-9.1%	1.5%
O[C@H]1CCCC[C@H]1N1CCC(c2ccccc2)CC1
    -0.8%&0.5%	-23.4%	4.9%&-6.1%
CN(Cc1ccccc1)C(=O)[C@H](Cc1ccc2ccccc2c1)NC(=O)[C@@H]1CCCN1C(=O)Nc1ccccc1[N+](=O)[O-]
    1.9%	11.9%	5.1%
